Compound activity as filed in PubChem BioAssay.
HNF4A DNA FP = change in binding of human HNF4 alpha to DNA. HNF4a-FITC DNA binding, fluorescence polarization, 1 h. activity change, % at 10 µM. 360,000 compounds, 0.3% hits; in the data active = activity change above about 30%, passing the limit was not always enough;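 note: controls were the assay level and a saturating level of protein; the project sought stronger binding though the title names inhibitors; some compounds called inactive have numbers as strong as hits; positive values seem to mean higher polarization but the record does not say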
Target sequence (P41235 whole entry, looked up): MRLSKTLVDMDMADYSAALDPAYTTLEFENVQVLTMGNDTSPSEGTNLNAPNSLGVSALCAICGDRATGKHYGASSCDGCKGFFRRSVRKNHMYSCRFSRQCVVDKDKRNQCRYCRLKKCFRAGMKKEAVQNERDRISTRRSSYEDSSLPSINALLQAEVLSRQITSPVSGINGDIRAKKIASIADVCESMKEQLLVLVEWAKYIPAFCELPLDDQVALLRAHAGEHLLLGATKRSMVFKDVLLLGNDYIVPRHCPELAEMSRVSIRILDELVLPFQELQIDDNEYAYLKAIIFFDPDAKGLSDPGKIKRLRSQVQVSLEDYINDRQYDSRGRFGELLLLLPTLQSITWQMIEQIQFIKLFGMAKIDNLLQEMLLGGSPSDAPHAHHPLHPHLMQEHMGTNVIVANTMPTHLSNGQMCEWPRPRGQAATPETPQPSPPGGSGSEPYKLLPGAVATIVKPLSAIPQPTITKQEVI
Beta2AR agonist = agonists of human beta-2 adrenergic receptor inducing internalization | response, % (no concentration beside the values) | P07550 | Am2.2-beta2AR cells, FAP receptor internalization, flow cytometry; reference of the scale not given here | AID 504454 | 340,000 compounds, 0.43% hits;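 active = response above a set limit, near 3 SD of response in nonfluorescent compounds, cut at about 42% in these data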;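 note: stock transfer was 100 nL into about 11 µL; a reference agonist was the positive control; negative values mostly stem from fluorescent compounds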
Target sequence (P07550 whole entry, looked up): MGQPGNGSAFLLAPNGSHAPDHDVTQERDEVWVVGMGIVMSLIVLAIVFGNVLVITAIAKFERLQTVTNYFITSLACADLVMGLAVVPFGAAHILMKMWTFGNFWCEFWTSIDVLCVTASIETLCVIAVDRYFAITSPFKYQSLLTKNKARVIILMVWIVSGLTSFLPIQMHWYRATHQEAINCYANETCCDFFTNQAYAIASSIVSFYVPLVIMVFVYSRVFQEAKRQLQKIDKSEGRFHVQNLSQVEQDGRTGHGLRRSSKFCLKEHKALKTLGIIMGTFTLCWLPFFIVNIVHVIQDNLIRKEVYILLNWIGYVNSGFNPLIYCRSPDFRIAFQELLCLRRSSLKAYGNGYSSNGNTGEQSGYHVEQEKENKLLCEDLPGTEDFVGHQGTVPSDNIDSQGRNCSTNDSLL
UCH37 DUB inh = human UCH37 deubiquitinating enzyme inhibition. purified proteasome/UCH37, Ub-AMC cleavage fluorescence. 330,000 compounds, 0.33% hits. Q9Y5K5. inhibition, % (no concentration beside the values);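 active = mean of two replicates above 20%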;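 note: 0% = compound-free wells with enzyme and 100% = wells lacking proteasome; stock transfer was 100 nL into about 20 µL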
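Material: human UCH37 enzyme supplied as purified proteasome complex. Measure: % inhibition of Ub-AMC cleavage fluorescence. Medium: pH 7.4 Tris-HCl (50 mM) with ovalbumin, ATP-MgCl2, DTT. Times: 30 min preincubation with enzyme, 25 min cleavage at room temperature. Detection: AMC fluorescence intensity at 355/460 nm.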
FGF22 binding = shifts melting point of recombinant human FGF22. recombinant FGF22 thermal shift, SYPRO orange fluorescence; percent of sucrose octasulfate shift, DMSO zero. calls only at 9.99 µM. 340,000 compounds, 1.5% hits. AID 651658;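 active = melting point raised past a set limit in the mean and every replicate; three in four hits are not shown here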
Ecoli growth = blocks Escherichia coli growth | OD600, 23 h; hits give low values | OD600 absorbance (test concentration not listed) | 330,000 compounds, 0.21% hits | AID 1053175;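 active = OD600 absorbance below the run mean of sample wells minus 3.6 SD, in any replicate, cut at about 0.56 in these data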;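 note: stock transfer was 300 nL into about 60 µL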
Ecoli rRNA inh = selective bacterial rRNA inhibition in E. coli. E. coli WT GFP vs humanized-ribosome RFP mutants, fluorescence, 24 h; hits give low values; DMSO median 0, no signal -100. AID 720706. 350,000 compounds, 1.6% hits. GFP signal change (wild-type ribosome), % (no concentration beside the values);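 active = significant combined selectivity score with lowered wild-type GFP, culture density cut under 30%, mutant RFP and density less affected; inactive = any of these conditions unmet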; note: one replicate is shown; some compounds called inactive have numbers as strong as hits
ALR inh = inhibitors of human sulfhydryl oxidase ALR. purified ALR, DTT oxidation, H2O2 HRP-luminol luminescence. inhibition, % (no concentration beside the values). P55789. 290,000 compounds, 3.8% hits;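 active = mean and each replicate at 75% or more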;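 note: stock transfer was 7.5 nL into about 7.5 µL; 0% = neutral wells and 100% = wells with inactivated enzyme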
Ecoli rRNA inh OD600 = further read-out of Ecoli rRNA inh, marked with its call; OD600 change, %; measured here: OD600 growth;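 optical density of the mix in the first replicate; 0 = DMSO median and -100 = no signal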
Ecoli rRNA inh RFP = second read-out of Ecoli rRNA inh, no call of its own (marks repeat the call); RFP signal change, %; measured here: RFP humanized mutant strains;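 first replicate; 0 = DMSO median and -100 = no signal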
Starred values were filed as active, the others as inactive; i = inactive; · = no result given. An excerpt; the hit share may differ from the screen's.

Each structure is followed by: HNF4A DNA FP, Beta2AR agonist, UCH37 DUB inh, FGF22 binding, Ecoli growth, Ecoli rRNA inh, Ecoli rRNA inh OD600, Ecoli rRNA inh RFP, ALR inh
1) CCC(C(=O)OCC(=O)N(CC)c1c(N)n(Cc2ccccc2)c(=O)[nH]c1=O)c1ccccc1 (configuration not stated)
  -0.1, 10, 3.0, i, 0.69, 10, 13, -6.1, 0
2) O=C(Cc1cccs1)Nc1ccc(S(=O)(=O)N2CCCCC2)cc1
  -4.6, 4, 1.7, ·, 0.79, ·, ·, ·, 0
3) O=C(O)CCSc1nnc(COc2ccc(Cl)cc2)n1-c1ccccc1
  9.3, -2, 3.2, i, 0.71, -10, -18, -4.8, 7
4) C=CCn1c(C#N)c(N)sc1=N
  19, -2, 5.0, ·, 0.77, ·, ·, ·, 43
5) Cc1ccc(NC(=O)C2CCCN2c2nn3c(=O)cc(C)nc3s2)cc1 (configuration not stated)
  -3.5, -9, 4.9, i, 0.72, 6, 5, 1.3, -6
6) CCOC(=O)c1cccc(OC(=O)CCNC(=O)c2ccc(Cl)cc2)c1
  -0.4, -4, 3.1, i, 0.68, -28*, -0.9*, 4.6*, ·
7) O=C(NNC(=O)c1cccnc1)Nc1cccc(Cl)c1Cl
  -2.2, 2, 2.9, ·, 0.66, ·, ·, ·, 54
8) O=C(Nc1ccc(N2CCN(c3ncccc3C(F)(F)F)CC2)nc1)c1cccs1
  3.4, 22, 6.0, i, 0.69, -22, -20, 9.2, -2
9) O=c1[nH]c(C2CCCN(S(=O)(=O)c3ccccc3)C2)nc2c1nnn2Cc1ccccc1Br (configuration not stated)
  -0.1, 2, 2.8, i, 0.69, -33, -45, -4.8, 1
10) CCN(CC)S(=O)(=O)c1cc(NC(=O)[C@@H](NC(N)=O)C(C)C)ccc1C
  1.3, 2, 2.0, i, 0.71, 6, 3, -1.4, 41
11) Cc1ccc(N2C(=O)N(CC(=O)N3CCOCC3)C(=O)C2C)cc1 (configuration not stated)
  4.6, -1, -1.6, i, 0.72, 4, 7, -0.6, 22
12) CCOc1ccc(S(=O)(=O)N2CCCC(C(=O)Nc3ccccc3)C2)cc1 (configuration not stated)
  3.2, 14, 1.9, i, 0.71, 12, 5, -1.3, -1
13) O=Cc1ccc(-c2ccc(Cl)cc2Cl)[nH]1
  4.0, 3, 1.4, i, 0.6, -7, -17, -1.7, ·
14) CCOCCCn1c(SCC(=O)Nc2cccc(S(=O)(=O)NC3=NCCCCC3)c2)nc2ccccc2c1=O
  -1.7, 3, 1.2, i, 0.67, -12, -11, 15, -6
15) O=C(NC(Cc1ccccc1)C(=O)O)c1ccco1 (configuration not stated)
  -0.3, 6, 5.9, i, 0.7, 12, 12, -1.8, -8
16) COc1ccc(CN2CCN(Cc3csc(C(C)=O)c3)CC2CCO)c(C)c1C (configuration not stated)
  2.0, 2, 7.8, i, 0.73, 6, 0, 1.3, -8
17) Cc1cccc(SCc2noc(C(=O)NCC3CCCO3)c2C(=O)O)c1 (configuration not stated)
  2.8, -9, 4.6, i, 0.72, -3, -2, -1.3, -1
18) CCN(CC)CCCNc1nc(-c2ccccc2)nc2ccccc12
  -2.0, 2, 7.2, ·, 0.66, ·, ·, ·, -6
19) CCN(CC)CCNC(C(=O)Nc1cccc(C(C)=O)c1)c1ccccc1 (configuration not stated)
  -0.7, 3, 1.1, i, 0.7, 6, 1, 0.7, 0
20) O=C(NCc1cccs1)[C@@H]1CCCN1S(=O)(=O)c1ccccc1F
  0.1, -1, 0.5, i, 0.69, 7, 3, 1.2, ·
21) Cc1c(C)n(CCCN(C)C)c2ncnc(Nc3ccccc3)c12
  -1.9, -4, 5.4, i, 0.67, 12, 3, 0.1, -1
22) CCOC(=O)C1CCCN(C(=O)CCCn2nnnc2CN2CCC(C)CC2)C1 (configuration not stated)
  -0.4, 9, 4.3, ·, 0.7, -1, 2, -2.1, 11
23) O=C1CC(C(=O)N2CCN(c3ccccn3)CC2)CN1Cc1ccccc1Cl (configuration not stated)
  1.7, -5, 0.5, i, 0.72, 6, 4, 2.4, ·
24) O=C(C[n+]1cccc(NC(=O)c2ccccc2)c1)c1cccc([N+](=O)[O-])c1
  -3.1, -1, 2.3, i, 0.66, 14, 27, 5.8, -15
25) C/C(=N\NC(=S)NC(C)C)c1ccc(Cl)s1
  -0.8, 0, ·, i, ·, 1, -11, 8.2, 9
26) Fc1nc(N2CCCC2)c(F)c(Oc2ccccc2Oc2c(F)c(F)nc(N3CCCC3)c2F)c1F
  1.1, 1, -31, ·, 0.69, ·, ·, ·, -10
27) CNC(=O)C1CC(=O)N(CCc2ccccc2)C(=Nc2ccc(OC)cc2)S1 (configuration not stated)
  -2.4, -7, 1.3, i, 0.67, -18, -18, 1.6, -1
28) CCCNC(=O)COC(=O)/C=C/c1cccc(F)c1
  -2.3, -2, 2.2, i, 0.65, 12, 14, 1.3, 9
29) O=S(=O)(Cc1ccccc1)Nc1ccc(S(=O)(=O)N2CCCC2)cc1
  -3.8, 1, -2.2, i, 0.7, -12, -11, 1.3, -3
30) Cc1ccc(C(=O)Nc2ccccc2C(=O)NC(Cc2c[nH]c3ccccc23)C(=O)O)cc1 (configuration not stated)
  -1.5, 1, 3.4, i, 0.71, -19, -28, 1.3, 13
31) CCOC(=O)C1CCN(C2CCN(Cc3nc(-c4ccccc4)no3)CC2)CC1
  7.4, 2, 0.9, ·, 0.68, 4, 6, -1.2, 2
32) CCOC(=O)N=Nc1c2ccccc2c2nc3no[nH]c3nc12
  0.1, 26, 6.7, i, 0.57, -18, -13, -4.0, ·
33) COc1ccc(S(=O)(=O)NCc2ccco2)cc1C(=O)N1CCOCC1
  2.0, 3, 4.1, i, 0.69, 5, 9, -2.3, ·
34) CCOC(=O)N1CCc2cc(OC)c(OC)c3c2c1cc1cc(OC)c(OC)cc13
  -0.9, 12, ·, i, ·, -23, -43, 37, ·
35) COc1ccccc1N1CCN(C2CCCN(C(=O)c3ccoc3)C2)CC1 (configuration not stated)
  2.9, 9, 1.8, i, 0.62, -2, -1, -5.7, 31
36) CCN(CC)C(=S)SC1CCCCN(C(=O)c2ccccc2)C1=O (configuration not stated)
  -0.8, 3, -1.8, i, 0.72, -34, -29, -6.3, -1
37) CCCc1cc(=O)oc2c(C)c(OS(C)(=O)=O)ccc12
  -0.4, -9, -14, ·, 0.71, ·, ·, ·, -4
38) COc1cc(OC)cc(C(=O)NNC(=O)c2cc(=O)[nH]c3ccccc23)c1
  -4.6, -2, -22, i, 0.69, 8, 10, -0.3, -6
39) Cc1ccccc1N1C(=O)N(c2cccc(C(F)(F)F)c2)C2CS(=O)(=O)CC21 (configuration not stated)
  1.9, -2, 2.6, ·, 0.74, ·, ·, ·, -28
40) Cc1ccc([N+](=O)[O-])cc1N/C=C/C(=O)c1ccco1
  -3.2, -2, 2.2, i, 0.65, 2, 6, 3.1, 1

Complete entries as entered above. Order of values: HNF4A DNA FP, Beta2AR agonist, UCH37 DUB inh, FGF22 binding, Ecoli growth, Ecoli rRNA inh, Ecoli rRNA inh OD600, Ecoli rRNA inh RFP, ALR inh
`Cc1ccc(C(=O)Nc2ccccc2C(=O)NC(Cc2c[nH]c3ccccc23)C(=O)O)cc1` (configuration not stated) is entered as -1.5, 1, 3.4, i, 0.71, -19, -28, 1.3, 13
`CCCc1cc(=O)oc2c(C)c(OS(C)(=O)=O)ccc12` is entered as -0.4, -9, -14, ·, 0.71, ·, ·, ·, -4
`CNC(=O)C1CC(=O)N(CCc2ccccc2)C(=Nc2ccc(OC)cc2)S1` (configuration not stated) is entered as -2.4, -7, 1.3, i, 0.67, -18, -18, 1.6, -1
`O=S(=O)(Cc1ccccc1)Nc1ccc(S(=O)(=O)N2CCCC2)cc1` is entered as -3.8, 1, -2.2, i, 0.7, -12, -11, 1.3, -3

Additional compounds
Each structure is followed by: HNF4A DNA FP, Beta2AR agonist, UCH37 DUB inh, FGF22 binding, Ecoli growth, Ecoli rRNA inh, Ecoli rRNA inh OD600, Ecoli rRNA inh RFP, ALR inh
41) COC(=O)[C@H](C)NC(=O)NCc1ccco1
  1.1, 6, -0.8, i, 0.67, 15, -1, -7.3, -3
42) O=S(=O)(c1ccc(Cl)cc1)N1CCC(n2cnc3cc(C(F)(F)F)ccc32)CC1
  8.8, -1, 3.2, ·, 0.65, ·, ·, ·, -22
43) Cc1ccc([N+](=O)[O-])cc1S(=O)(=O)NCCc1cn2ccccc2n1
  -3.3, -2, 1.8, i, 0.71, 6, -2, -7.9, -1
44) CC(C)(C)NC(=S)NC(=O)C12CCC3CC(CC(C3)C1)C2
  0.3, -1, 2.8, i, 0.7, 8, 2, 0.0, -9
45) CCCCn1c(N)c(N(Cc2ccccc2OC)C(=O)C(C)Oc2ccc(F)cc2)c(=O)[nH]c1=O (configuration not stated)
  -0.9, 0, 2.0, i, 0.68, 13, 17, 1.6, 0
46) CC(C)CC(=O)Nc1ccc(-c2cn3cccnc3n2)cc1
  -0.6, 0, i, i, 0.66, 2, 12, 0.0, -7
47) Cc1cc(C)c2c(n1)sc1c(=O)n(CC(=O)c3ccccc3)cnc12
  1.2, 1, 2.5, i, 0.69, 13, -6, 1.6, -5
48) Clc1ccc(-c2cnc3n2CCCCC3)cc1
  4.6, 0, 0.6, i, 0.62, -10, -19, -12, -3
49) O=[N+]([O-])c1ccc(N/N=C/c2ccccc2O)cc1
  23, 9, ·, i, ·, -19*, 7.2*, 7.0*, -2
50) COc1ccc(N2CCN(CC(O)COC(c3ccc(F)cc3)c3ccc(F)cc3)CC2)cc1 (configuration not stated)
  0.9, 6, 3.7, i, 0.61, -62, -79, -18, 23
51) Cc1c(NC(=S)NC(=O)c2ccc(-c3ccc(Cl)cc3)o2)cccc1C(=O)O
  9.5, -8, 8.5, i, 0.65, 16, 9, -0.3, -14
52) NNC(=O)c1csc(-c2ccc(C(F)(F)F)cc2Cl)n1
  0.2, -6, 3.6, i, 0.66, 3, 2, -5.0, 93*
53) O=C(NCCCl)Nc1cccc(Br)c1
  -4.3, 2, -0.6, i, 0.69, 11, 10, -4.4, 0
54) COC(=O)C1CN(C(=O)C(C)Oc2ccc(C(C)C)cc2)c2ccccc2O1 (configuration not stated)
  4.2, 3, 1.5, i, 0.65, -4, -18, -4.0, -1
55) Cc1ccccc1OCC(=O)Nc1ccc(N2CCN(C)CC2)c(Cl)c1
  3.1, -4, -0.1, i, 0.66, -2, -2, 4.0, -4
56) O=C(Nc1ccc(N2CCOCC2)cc1)c1ccc2nc(-c3ccco3)c(-c3ccco3)nc2c1
  -4.3, 16, 9.8, ·, 0.73, ·, ·, ·, ·
57) O=C(COc1ccc2c3c(c(=O)oc2c1)CCC3)NCc1cccnc1
  -0.4, -25, -19, i, 0.71, 2, 12, 0.1, -1
